# From PubChem
# StopGo reporter – High Throughput Screening for Foot and Mouth Disease Virus Antivirals; human cells with a luciferase reporter of 2A StopGo recoding; control for the full effect not named in the record; AID 1159524, 2015; actives 1.2% (n = 410,000); Potency, µM (series often up to 57.9 µM), inactives show top-dose signal change, negative = less light; active = well fitted falling curve with a large enough effect; inconclusive = small, poorly fitted or top-dose-only effect; inactive = no such curve, though single readings can be large or run the other way; tested in HEK293T cells; further: nearly all actives have a fitted effect of over 45% in size; luciferase light after 4 h
# Cruzain inh noDet – qHTS Assay for Promiscuous and Specific Inhibitors of Cruzain (without detergent) | Cruzipain (Trypanosoma cruzi), P25779 | actives 2.3% (n = 200,000) | purified cruzain, Z-FR-AMC fluorescence, no detergent | AID 1476, 2009 | Potency, µM, inactives show max response, negative = inhibition, hits mostly inhibitors;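 further: plate controls were enzyme without inhibitor for no effect and buffer without enzyme for full effect; nearly all actives have a fitted effect of over 40% in size; top concentration of the series not given in the record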
# Target sequence (P25779 123-467 limits assumed): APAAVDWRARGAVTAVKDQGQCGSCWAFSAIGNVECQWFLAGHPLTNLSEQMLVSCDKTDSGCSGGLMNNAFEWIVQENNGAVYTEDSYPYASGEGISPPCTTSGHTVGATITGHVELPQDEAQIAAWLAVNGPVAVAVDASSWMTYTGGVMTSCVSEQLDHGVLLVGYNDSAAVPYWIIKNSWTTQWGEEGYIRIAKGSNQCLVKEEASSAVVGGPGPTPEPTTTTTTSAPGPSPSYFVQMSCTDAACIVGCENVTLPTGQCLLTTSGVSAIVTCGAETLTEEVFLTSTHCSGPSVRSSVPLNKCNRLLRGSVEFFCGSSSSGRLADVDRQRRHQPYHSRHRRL
#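 Purified cruzain at 1.5 nM, pre-incubated 15 min with compound at room temperature in 100 mM sodium acetate pH 5.5, 5 mM DTT, 0.00005% Triton X-100. Reaction started with 2 uM Z-FR-AMC; AMC fluorescence increase over 60 s gives rate.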
# Cruzain Triton – qHTS Assay for Promiscuous and Specific Inhibitors of Cruzain (with detergent). Cruzipain (Trypanosoma cruzi), P25779. purified cruzain, Z-FR-AMC fluorescence, 0.01% Triton. Potency, µM, without a hit: max response, negative = inhibition, usual class: inhibitors. actives 0.43% (n = 200,000). AID 1478, 2009;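 further: plate controls were neutral wells for no effect and buffer without enzyme for full effect; nearly all actives have a fitted effect of over 40% in size; top concentration of the series not given in the record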
#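 Read-out: AMC fluorescence (360 nm excitation, 450 nm emission), four reads over 2 min, first-to-third difference used. Conditions: cruzain 1.5 nM, Z-FR-AMC 2 uM, pH 5.5 acetate, 5 mM DTT, 0.01% Triton X-100.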
# * hit, by the source's call; ? = inconclusive; & = joins results of further samples; [ ] = another dose, or the depositor's remark. Unless noted, the call rests on the fitted dose curve; in most records, active means well fitted curve in the direction sought with a large enough effect; inconclusive means small, poorly fitted or top-dose-only effect, or another doubt; inactive means no such curve, though single readings can be large; an effect the other way counts as inactive or inconclusive. Unless noted, on the % scale 0 is the no-effect control and ±100 the full control effect; potency means the concentration at half of the fitted maximal effect. This is a subset, so the mix of outcomes need not match the whole.
# The line under a structure holds: StopGo reporter | Cruzain inh noDet | Cruzain Triton
CN1CCCC2(CCN(S(=O)(=O)c3ccccc3)CC2)C1
    -2.0% | -11.9% | 4.2%
COc1ccccc1CNc1ncncc1-c1cccnc1
    ? | 3.9% | -0.3%
CCCCC/C=C\C/C=C\C/C=C\C/C=C\CCCCCC(=O)NCCO
    -8.9%[6.7 µM] | 3.5%&-7.0%&-3.1% | -29.4%&-0.9%&4.0%
Cc1nc2cnc(OCc3ccccc3)nc2n(C)c1=O
    12.6% | -2.0% | -2.5%
COc1ncc2nc(-c3ccc(Cl)cc3)c(=O)n(CCC#N)c2n1
    -16.1% | -9.5% | -0.6%
CS(=O)(=O)Nc1cccc(-c2nc(Nc3ccccc3)c3ccccc3n2)c1
    -17.9% | 3.3% | -14.2%
CNc1ncncc1-c1c(C)noc1C
    2.2% | 1.4% | 2.5%
O=c1ccc2[nH]cc(C3=CCNCC3)c2[nH]1
    -14.4% | -0.1% | -3.4%
COC(=O)[C@]1(C)CCC[C@]2(C)c3ccc(C(C)C)cc3C(=O)CC12 (some centres not stated)
    -27.1% | -2.0% | 1.1%
COc1cccc(Cn2c(=O)cnc3cnc(Oc4cccc(Cl)c4)nc32)c1
    1.5% | ? | -2.2%
CC(C)C(N)C(=O)NC(Cc1c[nH]c2ccccc12)C(=O)O (configuration not stated)
    1.9% | 2.6% | 2.4%
CC(C)Oc1ccc2c(=O)c3cc(C(=O)O)ccc3oc2c1
    29.6% | 3.2% | -1.8%
O=c1c(-c2cc(F)cc(F)c2)nc2cnc(Oc3ccccc3)nc2n1C[C@H]1CCCO1
    -2.2% | -2.9% | 4.2%
CNc1nc(-c2ccc3c(c2)OCO3)nc2ccccc12
    32.4%[activator] | -12.7% | -8.7%
CC(=O)OC1CCC2(C)C3=C(CCC2C1(C)C)[C@]1(C)CCC(C(C)CCC=C(C)C)[C@]1(C)CC3 (some centres not stated)
    -18.0% | ? | -2.7%

# The line under a structure holds: StopGo reporter | Cruzain inh noDet | Cruzain Triton
CN(C)C(=O)c1ccc(-c2nc(Nc3ccncc3)c3ccccc3n2)cc1
    58.8%[activator] | 4.1% | -2.3%
C=C[C@](C)(O)CCC1C(=C)CC(OC(C)=O)C2C(C)(C)CCCC12C (some centres not stated)
    -23.2% | ? | -6.1%
Cc1nc2cnc(N3CCOCC3)nc2n(C[C@H]2CCCO2)c1=O
    -17.4% | -3.5% | -5.3%
Cc1nc2cnc(N(C)C)nc2n(Cc2ccc(F)cc2)c1=O
    ? | 12.7% | 11.5%
C=C(C(=O)O)[C@@H]1CC[C@@]2(C)CCC[C@](C)(O)[C@@H]2C1
    0.0% | -6.5% | 0.1%
O=C(c1ccncc1)N1CCC2(CCN(Cc3ccncc3)CC2)CC1
    -18.2% | 9.6% | 6.9%
COCCn1c(=O)cnc2cnc(OCc3ccccc3)nc21
    -2.4% | -1.4% | -2.8%
CN(C)c1ccc(/C=C2\CCCN=C2c2cccnc2)cc1
    -18.4% | -18.9% | -22.9%
O=c1c(O)c(-c2ccc(O)cc2)oc2ccccc12
    39.4%[activator] | 6.0% | 1.1%
O=S(=O)(c1ccccc1)N1CCC2(CCN(c3ccccc3)CC2)CC1
    ? | ? | -4.2%
CCOC(=O)C(Cc1ccc(O)cc1)NC(C)=O (configuration not stated)
    -9.1% | 17.9% | 1.8%
COc1ccc(-n2c(=O)c(CCc3ccccc3)nc3cnc(N4CCOCC4)nc32)cc1
    2.9% | -14.0% | 1.7%
COC(=O)N1CCC2(CC1)CN(c1ccccn1)C2
    -1.4% | 11.3% | 1.4%
Cc1cccc(CNc2ccnc(-c3ccc(N(C)C)cc3)n2)c1
    -21.4% | 2.3% | -15.0%
COc1ccc(CNc2ncncc2-c2ccc(N(C)C)cc2)c(OC)c1
    -22.6% | -14.4% | -4.7%

# The line under a structure holds: StopGo reporter | Cruzain inh noDet | Cruzain Triton
COc1ccc(-c2nc3cnc(N4CCOCC4)nc3n(C[C@H]3CCCO3)c2=O)cc1
    -10.0% | ? | 3.3%
COC(=O)Nc1ccc2[nH]cc(CCNC(C)=O)c2c1
    ? | -10.2% | 1.2%
Cc1noc(C)c1-c1ccc2ncnc(NC3CCNCC3)c2c1
    11.7% | -7.2% | 0.3%
N[C@H](C(=O)O)c1ccc(C(=O)O)c(O)c1
    -7.4%&-26.8% | -1.7% | 1.3%
CC(=O)OC1CC[C@]2(C)C(CCC3C2CC[C@]2(C)C(C4=CC(=O)OC4)C(OC(C)=O)CC32O)C1 (some centres not stated)
    ? | 28.2% | 1.1%
Cc1noc(C)c1-c1nc(Nc2ccccc2)c2ccccc2n1
    -12.9% | 2.7% | 3.1%
O=C(O)C1CC(C2CCCCN2)CN2CCCCC12 (configuration not stated)
    -6.5% | 1.5% | 7.1%
C[C@@H](C1[C@@H](O)CC2C3C=CC4C[C@@H](O)CC[C@]4(C)[C@H]3CC[C@@]21C)[C@@H]1CCCCN1 (some centres not stated)
    -26.9% | -5.4% | -2.3%
O=c1c(O)c(-c2ccc(O)c(O)c2)oc2c(OC3OC(CO)C(O)C(O)C3O)c(O)cc(O)c12 (configuration not stated)
    -0.4% | -13.9% | -0.1%
O=c1[nH]c(=O)c2nc(Br)n(C3OC(CO)C(O)C3O)c2[nH]1 (configuration not stated)
    8.2% | 0.7% | 2.8%
Cc1cccc(CNc2ccnc(-c3ccccc3C(F)(F)F)n2)c1
    ? | 16.5% | -7.0%
CC(C)NC(=O)N1CC[C@@]2(CCCN(C(=O)Oc3ccccc3)C2)C1
    -6.5% | 6.8% | 2.8%
O=C(Nc1ccccc1)N1CC2(CCN(C(=O)c3ccncc3)CC2)C1
    12.6% | 14.7% | 4.8%
CC(C)CN1CC2(CCN(C(=O)c3ccncc3)CC2)C1
    -7.2% | -3.1% | -4.1%
CN(C)c1ncc2nc(-c3cc(F)cc(F)c3)c(=O)n(CCC#N)c2n1
    -3.2% | 5.2% | 3.9%

# The line under a structure holds: StopGo reporter | Cruzain inh noDet | Cruzain Triton
CC1=C(/C=C/C(C)=C/C=C/C(C)=C/C=C/C=C(C)/C=C/C=C(C)/C=C/C(=O)[C@]2(C)CC(O)CC2(C)C)C(C)(C)CC(O)C1 (some centres not stated)
    -11.2% | -10.0% | -0.8%
COc1cc(OC)c2c(=O)c(O)c(-c3ccc(OC)c(OC)c3)oc2c1
    -2.9% | 9.3% | -2.4%
c1cnc2c(-c3nccc4c3[nH]c3ccccc34)cccc2c1
    -1.1% | -20.9% | -4.3%
COCCNc1ncnc2ccc(-c3ccc(N(C)C)cc3)cc12
    -3.5% | -0.9% | -5.0%
O=c1oc2ccccc2cc1O
    8.2% | -1.0% | 4.1%
O=c1c(CCc2ccccc2)nc2cnc(Nc3ccccc3)nc2n1Cc1cccs1
    13.0% | 25.1µM* | 3.6%
O=c1c(-c2cccs2)nc2cnc(Oc3ccccc3)nc2n1Cc1cccs1
    2.7% | ? | -1.4%
Cn1c(=O)c(-c2ccc(Cl)cc2)nc2cncnc21
    -16.0% | 1.3% | 5.8%
COCCn1c(=O)c(-c2cccc(C#N)c2)nc2cnc(OC)nc21
    -5.8% | -6.1% | -4.1%
CN1CCN(c2ncc3nc(-c4cc(F)cc(F)c4)c(=O)n(CCc4ccccc4)c3n2)CC1
    -5.0% | 5.4% | -19.0%
O=c1c(-c2ccc(F)cc2)nc2cnc(N3CCOCC3)nc2n1C1CC1
    16.9% | 1.2% | 0.1%
COc1ccc(CNc2nc(-c3ccccc3OC)nc3ccccc23)c(OC)c1
    -18.3% | -28.7% | -1.4%
CC(C)C(NC(=O)C(Cc1ccc(O)cc1)NC(=O)C(NC(=O)C(F)(F)F)C(C)C)C(=O)O (configuration not stated)
    7.8% | 7.8% | 1.1%
CN1C2CC3CC1C(O3)C2O (configuration not stated)
    1.9% | 0.5% | 6.3%
Cc1cc(O)c(C=O)c2c1C(=O)Oc1c(COC(=O)/C=C/C(=O)O)c(O)c(C(=O)O)c(C)c1O2
    -15.2% | 11.3% | 1.9%

# The line under a structure holds: StopGo reporter | Cruzain inh noDet | Cruzain Triton
CS(=O)(=O)Nc1cccc(-c2nc(N3CCNCC3)c3ccccc3n2)c1
    4.9% | 0.4% | 2.0%
Cn1cccc1C(=O)N1CCC2(CC1)CCN(c1ncccn1)CC2
    ? | 5.2% | 4.0%
Cn1c(=O)c(CCc2ccccc2)nc2cnc(Oc3ccccc3)nc21
    15.4% | -13.5% | -1.2%
C=CCSSCC=C
    -4.9% | 5.5% | 0.0%
CCCCC/C=C\C/C=C\C/C=C\C=C\[C@@H](O)CCCC(=O)O
    -17.8%[0.463 µM] | -2.0% | 4.4%
COc1ccccc1CN1CCCC2(CCN(S(C)(=O)=O)CC2)C1
    1.4% | -0.1% | 5.3%
CCCCCCC(C)(C)c1cc(OC)c2c(c1)OC(C)(C)[C@@H]1CC=C(C)C[C@@H]21
    -19.0% | -4.6% | 0.5%
O=C(Nc1cccc(F)c1)N1CC2(CCN(S(=O)(=O)c3ccccc3)CC2)C1
    ? | -16.4% | -1.4%
CCNc1ncc2nc(-c3cn(C)c4ccccc34)c(=O)n(C)c2n1
    -7.2% | -3.2% | -3.2%
CCCCCCCCCCCCC/C=C/[C@@H](O)[C@H](CO)N(C)C
    8.7%[6.7 µM] | 12.5% | 0.0%
C[C@@H]1Oc2ccccc2C=C1/C=C/C(=O)O
    -4.3% | ? | -22.7%
c1ccc2nc(C3=NCCN3)cnc2c1
    ? | -3.4% | -2.5%
COc1cccc(Cn2c(=O)c(C)nc3cnc(Nc4ccccc4)nc32)c1
    -13.6% | ? | 2.6%
COc1ccccc1-c1cncnc1NCc1cccc(C)c1
    -8.9% | -5.7% | 4.6%
CC(C)c1ccc(Cn2ccc3c4c(N)nc(NC5CC5)nc4ccc32)cc1
    ? | -8.2% | -7.1%

# The line under a structure holds: StopGo reporter | Cruzain inh noDet | Cruzain Triton
Cc1cnc(CNc2ncnc3ccc(-c4c(C)noc4C)cc23)cn1
    21.2% | -8.5% | -4.9%
COC(=O)c1c(Cl)c(Cl)c(C(=O)OC)c(Cl)c1Cl
    -6.4% | -3.3% | -1.9%
COc1cc(OC)cc(OC)c1
    42.1%[activator] | -4.6% | -0.6%
COc1ccc(C(=O)N2CCC[C@@]3(CCN(c4ccccc4)C3)C2)cc1
    -26.0% | 8.0% | -4.5%
CC(CCC(=O)O)C1CCC2C3CC[C@H]4CC(O)CC[C@@]4(C)C3CC(O)[C@]12C (some centres not stated)
    9.5% | ? | -1.2%
Cc1cccc(CNc2ccnc(-c3ccoc3)n2)c1
    -3.9% | ? | 2.7%
CC(=O)N1CCC2(CCN(Cc3ccccc3)CC2)CC1
    -7.9% | -14.8% | 3.2%
CC(=O)CC1CCCCN1 (configuration not stated)
    -5.5% | -4.2% | 4.2%
Cc1noc(C)c1-c1ccc2ncnc(NCc3cccs3)c2c1
    2.0% | 3.3% | -9.4%
CS(=O)(=O)N1CCC2(CC1)CN(C(=O)Nc1ccccc1)C2
    -24.6% | -12.3% | 1.3%
COc1ncc2nc(C)c(=O)n(Cc3ccc(F)cc3)c2n1
    -12.9% | -5.2% | 1.1%
Nc1nc2c(nc(Br)n2C2CC(O)C(CO)O2)c(=O)[nH]1 (configuration not stated)
    -7.1% | 5.9% | 4.2%
CCN(CCO)CCCC(C)Nc1ccnc2cc(Cl)ccc12 (configuration not stated)
    -13.7% | -10.8%&-1.7% | -0.2%&7.3%
COCCn1c(=O)c(-c2ccc(F)cc2)nc2cnc(OCc3ccccc3)nc21
    -23.4% | 9.5% | -8.9%
Clc1cncc(N2CCNCC2)n1
    -16.7%&-19.5% | -2.5% | -1.2%

# The line under a structure holds: StopGo reporter | Cruzain inh noDet | Cruzain Triton
CN(C)c1ncnc2ccc(-c3ccccc3C#N)cc12
    ? | -8.3% | 4.2%
COC(=O)c1c(OC)cc2c(c1C)Oc1c(Cl)c(O)c(Cl)c(C)c1C(=O)O2
    ? | 20.5% | -19.0%
Cc1c(-c2ccc(Cl)cc2)noc1C1CCN(CCc2ccccc2)CC1
    12.8%&1.8% | 1.3% | -0.5%
c1ncc(-c2ccc3c(c2)OCO3)c(NCCc2cnc[nH]2)n1
    -16.8% | 6.5% | 4.7%
CC1(CN2CCC(n3c(=O)[nH]c4ccccc43)CC2)OCc2ccccc2-n2cccc21 (configuration not stated)
    -26.6% | 4.9% | 4.9%

# Some of the entries so far, as labelled records:
smiles: COC(=O)c1c(OC)cc2c(c1C)Oc1c(Cl)c(O)c(Cl)c(C)c1C(=O)O2
  StopGo reporter: ?
  Cruzain inh noDet: 20.5%
  Cruzain Triton: -19.0%

smiles: Cc1c(-c2ccc(Cl)cc2)noc1C1CCN(CCc2ccccc2)CC1
  StopGo reporter: 12.8%&1.8%
  Cruzain inh noDet: 1.3%
  Cruzain Triton: -0.5%
